Screens (PubChem)
Beta apoptosis = inhibitors of cytokine-induced beta cell apoptosis, primary screen, luminescence | INS-1E cytokine-induced death, ATP luminescence, 48 h; percent of positive-control rescue, neutral wells zero | protection from apoptosis, % (test concentration not listed) | 300,000 compounds, 0.8% hits | AID 435005, 2010;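 active = all replicates at 75% or more, or half of them and the mean; inconclusive = half reach 75% but not the mean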;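 note: 0% = cytokine-treated negative control wells and 100% = positive control rescue; higher means more ATP so stronger rescue from cytokine killing; wells of about 40 µL received 100 nL stock; the first replicate is given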
RanGTP-Impb inh = inhibitors of RanGTP-importin-beta interaction, primary screen, biochemical, FRET, CFP-Ran, YFP-importin-beta, homogeneous | Ran GTPase (GTP-bound) - importin-beta complex | AID 2216, 2009 | 300,000 compounds, 1.1% hits | inhibition, % (test concentration not listed) | cell-free CFP-Ran/YFP-importin-beta FRET ratio;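 active = most replicates above 15%; inconclusive = exactly half above 15%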;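 note: 0% = DMSO wells and 100% = Ran loaded with GDP instead of GTP; wells of about 40 µL received 100 nL stock; the first replicate is given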
Vif TR-FRET = inhibitors of Vif binding to APOBEC3G peptide, primary screen, biochemical, TR-FRET, GST-Vif 1-94, biotin-A3G peptide, dose response retest (AID 1117319); TR-FRET GST-Vif / biotin-A3G peptide binding; higher % means a stronger effect; test concentration not given here; strong numbers were not always called active; Virion infectivity factor (Human immunodeficiency virus type 1 group M subtype B (isolate …; 260,000 compounds, 0.57% hits; inhibition, %; hits with a dose series show IC50 in µM;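 active = above the screen mean plus three standard deviations and confirmed in dose response; inconclusive = results disagree or hit not tested in dose response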;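 note: Vif residues 1-94 fused to GST binding biotinylated APOBEC3G peptide 110-148; 0% = full assay without inhibitor and 100% = GST in place of GST-Vif; retest series ran down from 100 µM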
A1 inh = caspase 3/7 activation in MEF A1-2A-BIM cells, primary screen, A1 inhibitor project, cell-based, luminescence, HTS; Caspase-Glo 3/7 luminescence, 3 h; percent of clofoctol response, vehicle zero; caspase activation, % (test concentration not listed); 330,000 compounds, 0.066% hits; AID 2462, 2010;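 active = over half of replicate activation scores above 10%, or exactly half above 10 with the replicate mean above 10; inconclusive = replicate mean below 10 yet half the replicates above 10; inactive = over half of replicates below 10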;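 note: wells of about 30 µL received 50 nL stock; many hits fall short of the cut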
T cruzi inh = inhibitors of intracellular T. cruzi growth, primary screen, luminescence, NIH3T3 host cells; T. cruzi beta-gal in NIH3T3, 90 h; inhibition, % (test concentration not listed); 300,000 compounds, 1.4% hits; AID 1885, 2009;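 active = mean inhibition across valid replicates above about 55%, limit read from the data; inconclusive = mean below that limit but half or more replicates reach it; inactive = mean below it, under half of replicates reach it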;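 note: signal also drops with host cell toxicity which is not excluded here; 0% = plate median of DMSO wells and 100% = zero luminescence signal; higher percent means less beta-gal luminescence so fewer parasites; stock transfer was 50 nL into about 50 µL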
LANA-H2B inh = blockers of LANA interaction with H2A/H2B – biochemical, FP readout, HTS, primary screen. Protein LANA1 (Human herpesvirus 8 type P (isolate GK18)), Q9QR71. cell-free LANA-H2A/H2B peptide, fluorescence polarization. inhibition, % (test concentration not listed). 320,000 compounds, 0.6% hits. AID 2629, 2010; in the data active = inhibition mostly above about 10%, no sharp cut-off; inactive = mostly below about 6.7%;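 note: stock transfer was 7.5 nL into about 10 µL; 0% = median of vehicle wells and 100% = median of positive control wells; one replicate is shown; the record names a cut of 25% in any replicate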
Calb FLC = C. albicans growth inhibition with fluconazole, primary screen, CaCi-2 strain, Alamar Blue fluorescence; C. albicans CaCi-2 (fluconazole-resistant clinical isolate) + fluconazole, 48 h; growth inhibition, % (test concentration not listed); 300,000 compounds, 0.57% hits;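 active = most replicates above 75%; inconclusive = exactly half above 75%; inactive = most below 75%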;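 note: all wells also contain fluconazole at 8 µg/ml as a sub-toxic cotreatment; 0% = median of DMSO wells and 100% = median of geldanamycin control wells; wells of about 8 µL received 7.5 nL stock; the first replicate is given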
AF4-AF9 inh = inhibitors of AF4 peptide binding to AF9, primary screen, biochemical, AlphaScreen, biotin-AF4 peptide, FLAG-AF9, single point. inhibition, % at 10 µM. AID 651704, 2012. 350,000 compounds, 0.47% hits;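 active = every replicate reaching a set inhibition limit, whatever the replicate mean, cut at about 25% in these data; inconclusive = mean inhibition reaches that limit but some replicates miss it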;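 note: 0% = plate neutral control median and 100% = total signal loss; the record names both 10 and 1 µM as test concentration; the first replicate is given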
The depositor's hits bear a star; ? = inconclusive; · = not tested or not shown. Compounds as they come. About 4.3% of those tested had a hit in this group.

SMILES	Beta apoptosis	RanGTP-Impb inh	Vif TR-FRET	A1 inh	T cruzi inh	LANA-H2B inh	Calb FLC	AF4-AF9 inh
CCN(c1cccc(C)c1)c1ncnc2nc[nH]c12	-8	3.1	-2%	0.4	1	4.8	2	-0.1
COc1cccc2c1OCC(C(=O)OCc1cccnc1)=C2	-1	-1.5	3%	-10	0	2.4	13	0.4
CCN(CC)S(=O)(=O)c1ccc(NC(=S)Nc2ccccc2)cc1	-4	4.9	·	0.3	-2	-1.1	6	-5.4
CCc1ccc(C(=O)COC(=O)C(CCSC)NC(=O)C23CC4CC(CC(C4)C2)C3)cc1 (stereo not drawn)	-1	-3.2	-1%	-0.3	-6	8.2	-3	-1.2
O=C1CC(c2ccccc2)C(C(=O)Nc2ccccc2F)N1 (stereo not drawn)	-5	4.7	14%	1.2	-3	-0.7	-2	-1.2
O=C(C1CCN(C2CC(=O)N(c3ccc(F)cc3)C2=O)CC1)N1CCOCC1 (stereo not drawn)	-5	·	8%	0.5	·	2.4	-5	·
O=C(NCCc1c[nH]c2ccccc12)/C(=C/c1cccnc1)NC(=O)c1ccco1	2	4.6	5%	0.6	-6	0.1	0	1.0
Cc1ccc(CNC(=O)C2CCCN(S(=O)(=O)c3ccc(F)cc3)C2)cc1 (stereo not drawn)	-10	-1.5	·	0.6	1	5.1	?	-0.4
O=C(Cc1ccccc1Cl)NCc1cccnc1	·	6.0	·	1.2	-1	-0.3	4	-7.5
CCCC(=O)Nc1nc(-c2ccc(Cl)s2)cs1	-1	0.6	-9%	-1.4	25	3.1	-48	1.9
COc1ccccc1S(=O)(=O)CC(O)COc1ccc(F)cc1Cl (stereo not drawn)	2	1.0	12%	0.3	-2	1.3	3	-1.0
CCCOc1ccccc1OCC(=O)Nc1ccc(S(=O)(=O)N2CCCC2)cc1	-8	3.4	2%	-0.8	-1	-2.9	0	-0.9
COc1ccc(-c2csc(NC(=O)CN3C(=O)NC4(CCCC4)C3=O)n2)cc1	-1	?	-6%	0.2	8	-6.9	0	-7.4
CCc1ccc(N(C(=O)CNC(=O)c2cccs2)C(C(=O)NC(C)(C)C)c2cc(OC)c(OC)c(OC)c2)cc1 (stereo not drawn)	-8	0.1	-2%	-0.8	-6	0.9	6	-80
CCOC(=O)c1c[nH]c2c(C)ccc(Cl)c2c1=O	·	-3.5	·	1.4	6	8.4	-9	-1.9
CCOc1ccccc1NC(=O)c1nc[nH]c1C(=O)Nc1ccccc1OCC	4	-1.1	-3%	0.1	-1	1.0	-10	·
C[C@H](NC(=O)c1nc[nH]c1C(=O)N[C@@H](CCCCN)C(=O)OC(C)(C)C)C(=O)OCc1ccccc1	-6	·	·	-0.6	·	0.8	·	6.1
COc1ccccc1C(=O)Nc1ccc(C(=O)c2ccccc2)cc1	-1	2.6	-5%	1.2	9	-5.2	2	-0.6
Cc1nc(NCCc2cnc[nH]2)c2oc3ccccc3c2n1	·	?	0%	-0.2	71*	-0.7	2	1.9
CC(NS(=O)(=O)c1ccc(Cl)cc1)C(=O)Nc1ccc2c(c1)OCCO2 (stereo not drawn)	-3	-1.9	·	0.2	-5	3.1	7	-3.1
Cc1ccc(NC(=O)C2C(C(=O)O)C3C=CC2C32CC2)cc1 (stereo not drawn)	4	1.2	?	0.6	-8	4.8	79*	·
Fc1ccc(CNc2ncnc3cc(Cl)ccc23)cc1	23	-3.7	-12%	-0.2	-7	4.4	-3	-2.3
CCCCn1nnc(NC(=O)c2ccc(-c3ccccc3[N+](=O)[O-])o2)n1	-4	-3.5	10%	0.6	5	6.0	-12	8.6
COC(=O)c1ccc(CN=C(NS(=O)(=O)c2ccccc2)c2ccccc2)cc1	-2	·	·	-1.5	·	0.1	·	-3.1
CC(=O)N(C(C)=O)n1c(/C=C/c2cccc([N+](=O)[O-])c2)nc2ccccc2c1=O	1	2.0	0%	1.3	-2	-2.5	-4	-1.4
COc1ccc(-c2cc(C(=O)N3CCCC3)no2)cc1OC	-4	0.4	-9%	0.2	-1	-0.3	6	0.0
O=C(/C=C/c1ccc(Cl)cc1)N1CCN(c2ccc([N+](=O)[O-])c(N3CCOCC3)c2)CC1	22	-0.3	·	-0.9	4	3.6	8	·
COc1ccc(C2=NN(C(=O)CN3CCCCC3)C(c3ccc(OC)cc3)C2)cc1 (stereo not drawn)	·	-5.9	·	0.0	17	-4.6	3	5.9
CC(C)(/C=N/O)/[N+]([O-])=C/c1ccco1	-2	5.4	5%	0.2	-18	1.2	-4	·
CC(C)OP(=O)(CCP(=O)(OC(C)C)OC(C)C)OC(C)C	-2	0.1	27%	-0.6	7	-1.5	11	-11
CCCCN1C[C@H](C)[C@@H](CC(=O)NCc2ccccc2)C1=O	-6	-1.8	·	-0.2	-14	-1.8	-7	-0.6
CCOc1cc(N2CCOCC2)c(OCC)cc1NC(=O)Cc1cccc(OC)c1	-1	-0.3	?	-0.4	28	-2.3	25	·
COc1ccccc1OCC(=O)Nc1ccc(S(=O)(=O)Nc2cc(C)on2)cc1	1	8.5	·	0.5	-8	0.8	0	1.5
CCOC(=O)c1cc2sccc2n1Cc1ccccc1	1	2.1	6%	2.5	10	1.0	11	·
O=C1/C(=C\c2ccc(-c3ccccc3[N+](=O)[O-])o2)C(c2ccccc2)=NN1c1ccccc1	0	-0.2	18%	0.4	13	3.2	0	·
Cc1ccnc(NS(=O)(=O)c2ccc(NC(=O)CSc3nc(-c4ccccc4)cc(=O)[nH]3)cc2)n1	2	9.1	0%	0.4	1	-5.8	-5	-2.6
O=C(COC(=O)C1CC(=O)N(CCc2ccccc2)C1)c1ccc[nH]1 (stereo not drawn)	-8	·	·	-1.0	·	0.5	·	5.1
O=C(c1cc(-c2ccccc2Cl)on1)N1CCCC1	-1	0.2	·	-5.7	-10	-2.4	19	0.4
Cc1cccc(NC(=O)c2nc[nH]c2C(=O)N[C@@H](C)C(=O)OCc2ccccc2)c1	-2	-0.3	18%	0.2	-2	0.6	4	·
CC12CCC(C(=O)NNc3ccc([N+](=O)[O-])cc3)(CC1=O)C2(C)C (stereo not drawn)	-2	-3.2	-3%	0.1	4	4.3	121*	1.3
O=C(CSc1nnc(CNC(=O)c2ccccc2F)o1)c1ccccc1	5	-1.2	71%	-1.5	-4	-0.2	1	·
CCN(CC(=O)Nc1ccccc1C(F)(F)F)C(=O)CCc1c(C)[nH]c(=O)c(C#N)c1C	-5	0.3	·	0.2	-5	7.9	5	0.0
O=C(Nc1ccc2c(c1)OCO2)c1ccc(Br)c(S(=O)(=O)N2CCCC2)c1	11	0.8	18%	1.3	5	-0.9	6	·
COc1ccc(C(=O)NCc2ccccc2)cc1S(=O)(=O)N1CCCc2ccccc21	20	0.9	-4%	1.4	23	-2.5	7	·
COc1cc([N+](=O)[O-])ccc1NC(=O)CCCOc1ccccc1	-1	-1.6	4%	-0.3	-1	-5.7	-6	·
O=C(COC(=O)/C=C/c1ccc(F)cc1)NC1CCCCCC1	-1	·	16%	-0.5	·	2.7	·	0.3
CC(CNS(=O)(=O)c1ccc(Cl)cc1)n1cncn1 (stereo not drawn)	-2	-1.3	·	-0.4	5	1.4	-5	-2.1
O=C(Nc1nnc(SCc2ccc(F)cc2)s1)c1ccc2ncsc2c1	·	1.6	·	·	-6	·	-2	6.7
Cc1ccc(NC(=O)Nc2cccc3ccccc23)cc1	7	2.6	2%	-1.3	-8	-9.6	17	-2.5
FC(F)(F)c1ccc(N2CCN(Cc3ccc4c(c3)OCO4)CC2)nc1	-2	-10	-10%	0.2	17	1.2	-62	·
CC(=O)c1ccc(NC(=O)C2CCCN2S(=O)(=O)c2ccc(C)cc2)cc1 (stereo not drawn)	-1	-9.7	27%	0.8	-6	4.0	-1	-4.1
CC(C)CNC(=O)c1cccc(NC(=O)c2ccc(Cl)c([N+](=O)[O-])c2)c1	-21	3.4	11%	0.0	39	-2.3	6	6.7
O=c1cc(O)c2ccc(O)cc2o1	-6	-0.4	·	0.8	-8	-4.4	1	-1.5
Cc1cccc(-c2nnc(SCC(=O)N3CCOCC3)o2)c1	-5	3.8	·	0.9	-1	3.3	-7	-2.5
O=C1NC(=Nc2ccccc2)S/C1=C\c1cccn1-c1ccccc1	13	?	-2%	-0.8	18	-2.8	0	·
Cc1cc(C)c(S(=O)(=O)NCCOc2ccccc2)c(C)c1-n1cnnn1	4	3.9	10%	-0.7	-7	-2.9	-2	-5.0
CCn1c(C)cc(C(=O)CSc2nnc(-c3ccco3)o2)c1C	-5	·	7%	-0.5	·	1.1	·	-2.5

A run of entries of the results above:
SMILES	Beta apoptosis	RanGTP-Impb inh	Vif TR-FRET	A1 inh	T cruzi inh	LANA-H2B inh	Calb FLC	AF4-AF9 inh
CC(C)CNC(=O)c1cccc(NC(=O)c2ccc(Cl)c([N+](=O)[O-])c2)c1	-21	3.4	11%	0.0	39	-2.3	6	6.7
O=c1cc(O)c2ccc(O)cc2o1	-6	-0.4	·	0.8	-8	-4.4	1	-1.5
Cc1cccc(-c2nnc(SCC(=O)N3CCOCC3)o2)c1	-5	3.8	·	0.9	-1	3.3	-7	-2.5
O=C1NC(=Nc2ccccc2)S/C1=C\c1cccn1-c1ccccc1	13	?	-2%	-0.8	18	-2.8	0	·
Cc1cc(C)c(S(=O)(=O)NCCOc2ccccc2)c(C)c1-n1cnnn1	4	3.9	10%	-0.7	-7	-2.9	-2	-5.0
CCn1c(C)cc(C(=O)CSc2nnc(-c3ccco3)o2)c1C	-5	·	7%	-0.5	·	1.1	·	-2.5
